Assay outcomes from PubChem BioAssay.
LASV entry inh: Lassa virus entry inhibition; AID 540256; Lassa virus pseudotype entry inhibition, cell reporter; control for the full effect not named in the record; Potency, µM (highest dose often 37.9 µM), without a hit: at the top dose activity change, negative = inhibition, actives largely listed as inhibitors; 1.2% of 300,000 active; active means well fitted inhibition curve with a large enough effect; inconclusive means small, poorly fitted or top-dose-only effect, or effect the other way; inactive means flat fitted curve, though single readings scatter; tested in HEK293 cells; further: nearly all actives have a fitted effect of over 50% in size; luciferase read-out
2A StopGo: FMDV 2A StopGo reporter, luciferase signal | Potency, µM (titrated, usually from 57.9 µM), for inactives: at the highest dose signal change, negative = less light | human cells with a luciferase reporter of 2A StopGo recoding; control for the full effect not named in the record | 1.2% of 410,000 active; active = well fitted falling curve with a large enough effect; inconclusive = small, poorly fitted or top-dose-only effect; inactive = no such curve, though single readings can be large or run the other way; tested in HEK293T cells; further: nearly all actives have a fitted effect of over 45% in size; luciferase light after 4 h
Marburg entry inh: blocks Marburg virus binding to or entry into cells; Marburg virus pseudotyped entry inhibition, cell reporter; control for the full effect not named in the record; about a third of the inactives were read at about 46 µM; Potency, µM (highest dose often 37.8 µM), for the others: top-dose activity change, negative = inhibition, most hits filed as inhibitors; 1.8% of 300,000 active; active = well fitted inhibition curve with a large enough effect; inconclusive = small, poorly fitted or top-dose-only effect, or effect the other way; inactive = flat fitted curve, though single readings scatter; tested in HEK293 cells; about a fifth of its hits are not listed in these tables; further: luciferase read-out
RE007 growth inh: less growth of the S. pombe RE007 Vpr strain; S. pombe RE007 Vpr strain, BacTiter-Glo ATP luminescence, 24 h; control for the full effect not named in the record; 0.21% of 360,000 active; Potency, µM (series often up to 92.2 µM), for inactives: top-dose activity change, negative = less growth; active = well fitted falling curve with a large enough effect; inconclusive = small, poorly fitted or top-dose-only effect; inactive = no such curve, though single readings can be large or run the other way;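 further: nearly all actives have a fitted effect of over 50% in size; the assay follows cell death caused by Vpr and the record does not say whether a fall means rescue or toxicity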
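Fission yeast RE007 carrying one integrated HIV-1 vpr copy, seeded at OD 0.01 in PMG+AL medium with 23 nL pinned compound. Grown 24 h at 30 degrees; viability read by BacTiter-Glo luminescence after 5 min.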
The depositor's hits bear a star; ? = inconclusive; / = no result given; & = joins results of further samples; [ ] = another dose, or the depositor's remark. On the % scale 0 is the no-effect control and ±100 the full control effect; potency means the concentration at half of the fitted maximal effect.

Codes – A = LASV entry inh; B = 2A StopGo; C = Marburg entry inh; D = RE007 growth inh
#1 Cc1ccc([C@H]2C[C@H](n3cc(C4CC4)nn3)[C@@H](O)CN2C(=O)c2cccs2)cc1
  A = 1%[46.1 µM] | B = -26% | C = / | D = -20%
#2 CCCCNCCS(=O)(=O)NCc1ccccc1
  A = 5%[46.1 µM] | B = -19% | C = / | D = -1%
#3 COc1cccc(CNS(=O)(=O)c2ccccc2Br)c1OC
  A = ? | B = 15% | C = / | D = 6%
#4 Cn1ccc2c(-c3ccc(C(=O)O)cc3)cc3c(c21)C1CCC3C1 (configuration not stated)
  A = ? | B = 6% | C = / | D = 45µM*
#5 CS(=O)(=O)Nc1ccc(Br)cc1
  A = 2%[46.1 µM] | B = 0% | C = / | D = -12%
#6 O=C(NCc1ccccc1)c1cccc(NC(=O)C2CCCCC2)c1
  A = ? | B = 8% | C = / | D = 4%
#7 Cn1ccc2c(N3CCOCC3)cc3c(c21)C1CCC3O1 (configuration not stated)
  A = 10%[46.1 µM] | B = 0% | C = / | D = 17%
#8 COc1cccc(-c2ccc(CN3C(C(C)C)C(=O)N(Cc4cn(CCC5OCCO5)nn4)CCS3(=O)=O)cc2)c1OC (configuration not stated)
  A = ? | B = -15% | C = / | D = 7%
#9 CCCCN1CC(N2CCN(C3CCN(C)CC3)CC2)CS1(=O)=O (configuration not stated)
  A = ? | B = -11% | C = / | D = 3%
#10 O=C(Nc1cccc(C(=O)N2CCOCC2)c1)C1CCCC1
  A = 5%[46.1 µM] | B = -16% | C = / | D = -5%
#11 C#CCN1C(C)=CC(=O)[C@@H](O)[C@H]1c1ccccc1Br
  A = ? | B = -6% | C = / | D = 4%
#12 CCc1cc(-c2cnnn2Cc2ccccc2)ccc1-c1cn(CC(C)C)nn1
  A = ? | B = -11% | C = / | D = -1%
#13 COc1ccc(NC(=O)C[C@H]2C(=O)N(Cc3cccnc3)C[C@@H]2Cc2ccccc2)cc1
  A = ? | B = -28% | C = / | D = ?
#14 O=C(c1ccco1)N1CCN(C2CN(Cc3ccccc3)S(=O)(=O)C2)CC1 (configuration not stated)
  A = 0%[46.1 µM] | B = -21% | C = / | D = -12%
#15 C#CCNS(=O)(=O)c1ccc(F)cc1Br
  A = 10%[46.1 µM] | B = -4% | C = / | D = 7%
#16 CN1CCC(N2CCN(C3CN(C4CCCCC4)S(=O)(=O)C3)CC2)CC1 (configuration not stated)
  A = -9%[46.1 µM] | B = -8% | C = / | D = 5%
#17 CC(C)C1C(=O)N(Cc2cn(CCC3OCCCO3)nn2)CCS(=O)(=O)N1Cc1ccc(-c2ccncc2)cc1 (configuration not stated)
  A = ? | B = -1% | C = / | D = 1%
#18 CCCCN1CC(COCc2ccccc2)Oc2cccc(Oc3ccc(F)cc3)c2S1(=O)=O (configuration not stated)
  A = ? | B = 6% | C = / | D = 10%
#19 N#Cc1ccccc1OCc1cn(CC(=O)c2ccc(O)cc2)nn1
  A = ? | B = 44%[activator] | C = / | D = -8%
#20 Cc1ccc(-c2ccc(CN3C(CC(C)C)C(=O)N(Cc4cn(CC5CCCCC5)nn4)CCS3(=O)=O)cc2)cc1 (configuration not stated)
  A = ? | B = ? | C = / | D = 1%
#21 CN(C)CCN(C)C1CN(Cc2ccc([N+](=O)[O-])cc2)S(=O)(=O)C1 (configuration not stated)
  A = ? | B = 0% | C = / | D = -24%
#22 COc1ccc([C@H]2C[C@@H](n3cc(COC(=O)c4ccccc4)nn3)[C@H](O)CN2C(=O)C2CCCCC2)cc1
  A = 10%[46.1 µM] | B = -9% | C = / | D = -11%
#23 CC1C(=O)N(Cc2cn(CCC3OCCO3)nn2)CCS(=O)(=O)N1Cc1ccc(-c2cccc(CO)c2)cc1 (configuration not stated)
  A = 15%[46.1 µM] | B = -18% | C = / | D = -19%
#24 CCOC(=O)[C@@H]1CSCCS(=O)(=O)N1Cc1ccccc1Br
  A = ? | B = -14% | C = / | D = -3%
#25 O=c1cc(CN2CCN(c3ccccc3F)CC2)c2ccccc2o1
  A = 12%[46.1 µM] | B = -18% | C = / | D = 36%
#26 O=C(C[C@H]1C(=O)N(Cc2cccnc2)C[C@@H]1Cc1ccccc1)Nc1ccccc1
  A = ? | B = -21% | C = / | D = 11%
#27 O=S1(=O)CC(N2CCN(c3ccccn3)CC2)CN1C1CCCCC1 (configuration not stated)
  A = / | B = / | C = / | D = -2%
#28 COc1ccc(OCc2cn(CC(=O)c3ccc(O)cc3)nn2)cc1
  A = 5%[46.1 µM] | B = 17% | C = / | D = 6%
#29 CCCC(=O)OCC1CN(Cc2ccco2)S(=O)(=O)c2c(F)cccc2O1 (configuration not stated)
  A = ? | B = -11% | C = / | D = -3%
#30 CC(C)CC1C(=O)N(Cc2cn(CCC3OCCO3)nn2)CCS(=O)(=O)N1Cc1ccc(-c2ccc(F)cc2)cc1 (configuration not stated)
  A = -21%[46.1 µM] | B = -6% | C = / | D = -22%
#31 O=S1(=O)CC(N2CCC(Cc3ccccc3)CC2)CN1Cc1ccc(F)cc1 (configuration not stated)
  A = -6%[46.1 µM] | B = -36% | C = / | D = -6%
#32 Cc1ccc(CN2CC(N3CC=CC3)CS2(=O)=O)cc1 (configuration not stated)
  A = ? | B = 0% | C = / | D = 2%
#33 Cc1ccc([C@H]2C[C@@H](n3cc(C4CC4)nn3)[C@H](O)CN2Cc2cccs2)cc1
  A = ? | B = -4% | C = / | D = 21%
#34 O=C(Nc1cccc(C(=O)N2CCCCC2)c1)c1ccccc1
  A = ? | B = 35%[activator] | C = / | D = -12%
#35 COCCN1C(=O)N[C@@H](c2cccc(C(F)(F)F)c2)[C@H](C(=O)OC)[C@H]1C
  A = / | B = -18% | C = -22%&-22%&-22%[14.2 µM] | D = -1%
#36 CCN1C(=O)N[C@@H](c2cccc(C(F)(F)F)c2)C(C(C)=O)=C1C
  A = / | B = -13% | C = 12%&12%[14.2 µM] | D = 8%
#37 COc1ccc([C@H]2C[C@H](O)[C@@H](n3cc(-c4ccc(F)cc4)nn3)CN2CC2CCCCC2)cc1
  A = / | B = -13% | C = ? | D = -18%
#38 COc1ccc([C@H]2C[C@H](O)[C@@H](n3cc(-c4ccc(F)cc4)nn3)CN2C(=O)C2CCCCC2)cc1
  A = / | B = -14% | C = ? | D = -15%
#39 COC(=O)[C@H]1[C@@H](C)N(Cc2ccccc2)C(=O)N[C@H]1c1ccccc1
  A = / | B = -2% | C = ? | D = 4%
#40 COCOCCn1cc(CN2CCS(=O)(=O)N(Cc3ccc(-c4ccc(OC)cc4)cc3)C(C)C2=O)nn1 (configuration not stated)
  A = / | B = -16% | C = ? | D = -10%
#41 C=CCN(CC=C)Cc1cc(=O)oc2cc(C)ccc12
  A = / | B = 2% | C = ? | D = 2%
#42 CCN1C(=O)N[C@@H](c2ccccc2)[C@@H](C(=O)OC)[C@H]1C
  A = / | B = -13% | C = 1%&1%&1%[14.2 µM] | D = -14%
#43 CCN1C(=O)N[C@@H](CCc2ccccc2)C(C(C)=O)=C1C
  A = / | B = -5% | C = -9%&-9%[14.2 µM] | D = 13%
#44 CC(C)C1C(=O)N(Cc2cn(Cc3ccco3)nn2)CCS(=O)(=O)N1Cc1ccc(-c2cccc(N(C)C)c2)cc1 (configuration not stated)
  A = / | B = -24% | C = ? | D = -7%
#45 Cn1ccc2c(-c3cncc4ccccc34)cc3c(c21)C1CCC3O1 (configuration not stated)
  A = / | B = 0% | C = ? | D = -28%
#46 C=CC1=C2C=C(C3CC3)N(CC3CC3)C=C2C(=O)C(C)(OC(=O)c2ccco2)C1=O (configuration not stated)
  A = / | B = 65%[activator] | C = 12%&12%&12%[14.2 µM] | D = -6%
#47 Cc1ccc([C@H]2C[C@H](O)[C@@H](n3cc(C4CC4)nn3)CN2CC2CCCCC2)cc1
  A = / | B = -1% | C = ? | D = -7%
#48 O=C(NCc1ccccc1)c1cccc(NC(=O)C2CC2)c1
  A = / | B = -5% | C = ? | D = -23%
#49 COC(=O)C1=C(C)N(Cc2ccco2)C(=O)N[C@@H]1c1ccc(Br)cc1
  A = / | B = -9% | C = ? | D = 0%
#50 CCN1C(=O)N[C@@H](c2cccc(C(F)(F)F)c2)[C@@H](C(=O)OC)[C@H]1C
  A = / | B = -1% | C = ? | D = 5%

Five structures out of the list, ordered by SMILES length, high to low.
Codes – A = LASV entry inh; B = 2A StopGo; C = Marburg entry inh; D = RE007 growth inh
#13 COc1ccc(NC(=O)C[C@H]2C(=O)N(Cc3cccnc3)C[C@@H]2Cc2ccccc2)cc1
  A = ? | B = -28% | C = / | D = ?
#6 O=C(NCc1ccccc1)c1cccc(NC(=O)C2CCCCC2)c1
  A = ? | B = 8% | C = / | D = 4%
#10 O=C(Nc1cccc(C(=O)N2CCOCC2)c1)C1CCCC1
  A = 5%[46.1 µM] | B = -16% | C = / | D = -5%
#3 COc1cccc(CNS(=O)(=O)c2ccccc2Br)c1OC
  A = ? | B = 15% | C = / | D = 6%
#2 CCCCNCCS(=O)(=O)NCc1ccccc1
  A = 5%[46.1 µM] | B = -19% | C = / | D = -1%

Later entries:
Codes – A = LASV entry inh; B = 2A StopGo; C = Marburg entry inh; D = RE007 growth inh
#51 CC1C(=O)N(Cc2cn(Cc3ccco3)nn2)CCS(=O)(=O)N1Cc1ccc(-c2ccccc2)cc1 (configuration not stated)
  A = / | B = 0% | C = ? | D = 2%
#52 COc1ccc(NC(=O)C[C@H]2C(=O)N(c3ccc(Br)cc3)C[C@@H]2C)cc1
  A = / | B = -29% | C = ? | D = -28%
#53 O=C1CC[C@@H]2C[C@@]3(C[C@@H]4CCN1[C@H]24)Nc1cc([N+](=O)[O-])ccc1NC3=NCc1ccccc1
  A = / | B = -11% | C = -3% | D = -6%
#54 CN(CCc1ccccc1)C(=O)c1ccc(NC(=O)Cc2cccc(NC(=O)C3CCN(C(=O)c4ccccc4)CC3)c2)cc1
  A = / | B = -13% | C = -3% | D = 2%
#55 COCCN1C(=O)N[C@@H](c2ccco2)C(C(=O)OC)=C1C
  A = / | B = -14% | C = 3%&3%[14.2 µM] | D = 1%
#56 COc1cccc(CN(C)C(=O)c2cccc(S(=O)(=O)N3CCN(c4ccccc4)CC3)c2)c1OC
  A = / | B = 18µM* | C = 0% | D = -8%
#57 CCOC(=O)CN1C(=O)N[C@@H](c2cccc(F)c2)C(C(C)=O)=C1C
  A = / | B = 0% | C = 13%&13%[14.2 µM] | D = -9%
#58 O=C1c2ccccc2S(=O)(=O)c2cc(N3CCOCC3)ccc21
  A = / | B = -62% | C = -7% | D = -7%
#59 Cc1cccc(CN2CCN(C3CN(Cc4cn(Cc5ccccc5C(F)(F)F)nn4)S(=O)(=O)C3)CC2)c1 (configuration not stated)
  A = / | B = ? | C = ? | D = -6%
#60 O=C(Nc1cccc(C(=O)N2CCCC2)c1)C1CC1
  A = / | B = -18% | C = ? | D = 1%
#61 O=C(Nc1ccc(C(=O)N2CCCCC2)cc1)c1ccccc1
  A = / | B = 52%[activator] | C = ? | D = -12%
#62 COc1ccc(-c2ccc(CN3C(C(C)C)C(=O)N(Cc4cn(CC5CCCCC5)nn4)CCS3(=O)=O)cc2)cc1 (configuration not stated)
  A = / | B = -8% | C = ? | D = 7%
#63 Cc1ccc([C@H]2C[C@@H](n3cc(-c4ccc(F)cc4)nn3)[C@H](O)CN2CC2CCCCC2)cc1
  A = / | B = 9% | C = ? | D = -15%
#64 COc1ccccc1C(=O)N1[C@@H](C(C)C)COc2cc(Br)ccc2S1(=O)=O
  A = / | B = -9% | C = ? | D = -21%

Compounds above that have a CF3 group:
Codes – A = LASV entry inh; B = 2A StopGo; C = Marburg entry inh; D = RE007 growth inh
#35 COCCN1C(=O)N[C@@H](c2cccc(C(F)(F)F)c2)[C@H](C(=O)OC)[C@H]1C
  A = / | B = -18% | C = -22%&-22%&-22%[14.2 µM] | D = -1%
#36 CCN1C(=O)N[C@@H](c2cccc(C(F)(F)F)c2)C(C(C)=O)=C1C
  A = / | B = -13% | C = 12%&12%[14.2 µM] | D = 8%
#50 CCN1C(=O)N[C@@H](c2cccc(C(F)(F)F)c2)[C@@H](C(=O)OC)[C@H]1C
  A = / | B = -1% | C = ? | D = 5%
#59 Cc1cccc(CN2CCN(C3CN(Cc4cn(Cc5ccccc5C(F)(F)F)nn4)S(=O)(=O)C3)CC2)c1 (configuration not stated)
  A = / | B = ? | C = ? | D = -6%

These rows are one share of the data; count on the stated rates, not on these rows.
